From PubChem BioAssay
PrP 5UTR inh – suppresses PrP 5' UTR mRNA reporter expression; cell-based PrP 5' UTR mRNA reporter, plate reader; inhibition, % (concentration not given with the values); actives 0.35% (n = 340,000); AID 488862;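 active = every replicate at 50% or more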;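 also: 0 = median of the neutral control wells; tested in H4 reporter cells; numbers are from one replicate; inactives centre near -14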
Autofluor counter – counter-screen for toxin protease inhibitors: compound fluorescence; compound autofluorescence counterscreen, microsphere flow cytometry; stronger effect = higher value; fluorescence intensity (test concentration not listed); actives 3.1% (n = 360,000);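 active = at least 3 SD above the mean of all compounds, about 16000 in these data; inconclusive = too few beads counted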;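 also: 100 nL of 1 mM stock went into each well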
Sa RN4220 lethal – S. aureus RN4220 growth inhibition. OD600, 16 h. inhibition, % (test concentration not listed). actives 0.33% (n = 330,000). AID 1259311;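 active = z-score of -3 or lower and OD600 up to 0.18 on both plates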;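 also: plate controls were untreated cells for no effect and reference antibiotic for full effect; stock transfer was 100 nL into about 80 µL; one replicate is shown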
Sa ugtP lethal – growth inhibition of S. aureus ugtP deletion strain; growth inhibition, % (no concentration beside the values); S. aureus RN4220 ugtP deletion, OD600 growth, 16 h; some inactives read as strong as hits; actives 0.54% (n = 330,000); AID 1259309;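 active = z-score under -3 and OD600 up to 0.15 on both plates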;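 also: plate controls were untreated wells for no effect and antibiotic for full effect; wells of about 80 µL received 100 nL stock; the first replicate is given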
Mtb hypoxia inh – reduces hypoxia-regulated biosensor signal in M. tuberculosis. fluorescence inhibition, % (no concentration beside the values). M. tuberculosis hypoxia-regulated fluorescent reporter, fluorescence. actives 0.1% (n = 300,000);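 active = 35 to 45% if threefold the growth effect, above 45% if 1.5-fold the growth effect; inactive = the rest, general growth blockers included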;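 also: wells of about 50 µL received 100 nL stock; 0% = vehicle wells and 100% = reference inhibitor wells; whole bacteria with a GFP reporter of the hypoxia response; strong numbers were not always called active; many hits fall short of the cut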
BJeLR viability – BJeLR cell viability loss; inhibition, % (concentration not given with the values); actives 0.17% (n = 300,000); BJeLR (HRASV12) viability, CellTiter-Glo ATP luminescence, 48 h; reference of the scale not given here;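 active = replicate mean above 50%; inconclusive = above 50% but judged a plate artefact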;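 also: 50 nL library stock added to about 25 µL; numbers are from one replicate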
Mtb hypoxia inh growth – further read-out of Mtb hypoxia inh, marked with its call; growth inhibition, %; measured here: M. tuberculosis growth (absorbance);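 0% = vehicle and 100% = reference antibiotic; read after six days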
Active calls of the source: *; ? = inconclusive; · = no result given.

SMILES	PrP 5UTR inh	Autofluor counter	Sa RN4220 lethal	Sa ugtP lethal	Mtb hypoxia inh	Mtb hypoxia inh growth	BJeLR viability
COC(=O)CCCC1=CC2=CC(=O)C(C)(OC(=O)c3cccs3)C(=O)C2=CN1c1cccc(C#N)c1 (stereo not given)	-28	3497	-0.5	-8	-3	-3	7
COc1ccc(S(=O)(=O)N2CCN(CC(=O)Nc3cc(C(F)(F)F)ccc3Cl)CC2)cc1	-5	2460	1.9	-5	·	·	-2
CC(=O)NC1(C(F)(F)F)N=C2SCCN2C1=O (stereo not given)	-11	22076*	5.4	4	9	12	13
Cc1ccc(/C=C/C(=O)NCCCN2CCN(CCCNC(=O)/C=C/c3ccc(C)o3)CC2)o1	-2	3023	3.9	-1	10	9	-7
CC(N=Cc1c(O)[nH]c(=O)[nH]c1=O)c1ccccc1 (stereo not given)	-24	17759*	4.0	4	8	-5	8
CCCCc1nc(SCC(=O)N2CCOCC2)c2c(=O)n(C)c(=O)n(C)c2n1	-20	4249	2.2	0	7	-2	-1
CCc1ccccc1NC(=O)CSc1nc2n[nH]c(C)c2c(=N)n1-c1ccc(OC)cc1	-28	4967	4.5	-11	·	·	·
CC1CCCCC1NC(=O)c1cncc(Br)c1 (stereo not given)	-18	3940	3.9	1	24	31	11
CN1CCN(C(=O)c2ccc3c(c2)N(Cc2ccc(F)cc2)C(=O)c2ccccc2S3=O)CC1 (stereo not given)	11	5977	4.9	-1	-5	1	0
COc1cccc2c1C(=O)C[C@]1(CCCCC1C)O2 (stereo not given in full)	·	·	7.3	7	26	20	·
CSc1nc(SC)c2c3c(oc2n1)COC(C)(C)C3	-2	10478	5.3	22	5	-1	-7
CN(C)C(=S)SCC(=O)NC(=O)NC(C)(C)C	2	3156	3.8	6	8	1	-10
CCOC(=O)CSc1nc2c(cnn2-c2ccc(Cl)cc2)c(=O)[nH]1	-28	3721	1.7	11	1	6	8
O=C(NCC1CCCO1)c1cc2c(s1)CS(=O)(=O)C2 (stereo not given)	-24	8529	3.5	9	0	16	0
Cn1c(Cn2nnc3ccccc32)nnc1SCC(=O)N1c2ccccc2Sc2ccccc21	-8	5644	0.2	-3	-14	-7	2
COc1ccc(C)cc1NC(=O)CN1C(=O)C2CC=CCC2C1=O (stereo not given)	-8	6569	5.4	1	8	12	·
CC(=O)c1cc(-c2ccccc2)n(CC(=O)NC2CCCCC2)c1C	-36	1916	5.0	2	-14	-15	-2
Cc1cccc(NC(=O)c2ccc(OCC(=O)NCc3ccccc3)cc2)c1C	-7	10128	-1.3	-1	3	3	-3
C#CC(CC)(CC)NC(=O)c1cc(S(=O)(=O)N2CCCCC2)ccc1N1CCOCC1	-29	·	4.5	2	5	4	·
CC1CN(C(C)CO)C(=O)Cc2cc(NC(=O)NC3CCCCC3)ccc2OC1CN(C)S(=O)(=O)c1ccccc1 (stereo not given)	·	·	0.2	3	4	24	·
Cc1cnc(NC(=O)COc2ccccc2Cl)s1	63*	7798	12	13	2	8	5
O=C(NC1(C(F)(F)F)C(=O)Nc2c1c(=O)[nH]c(=O)n2Cc1ccccc1)c1ccc(Cl)cc1 (stereo not given)	5	16519*	·	·	·	·	6
CC(=O)Nc1ccc(C=NNC(=O)c2cccs2)cc1	·	·	6.9	13	3	-3	·
CC(NC(=O)c1cc(S(=O)(=O)N(C)C)ccc1Cl)c1ccc(-n2ccnc2)cc1 (stereo not given)	2	5497	1.6	3	6	-11	-5
CCOc1cc(N2CCOCC2)c(OCC)cc1NC(C)C(=O)N1CCN(CC)CC1 (stereo not given)	-13	3138	6.7	2	-5	5	5
O=C1OCCN1c1ccccc1	-20	4127	4.8	-6	17	8	·
CCCOc1ccc(N2C(=O)CC(N(Cc3ccco3)C(C)=O)C2=O)cc1 (stereo not given)	-25	2436	3.6	-5	5	4	-3
O=C(CCS(=O)(=O)c1ccccc1)Nc1ncc([N+](=O)[O-])s1	-17	3885	15	19	9	10	1
COc1ccc(NC(=O)Nc2sc(=S)n(C)c2C)cc1	-24	2461	1.6	1	-13	3	·
O=C(O)C1CC=CCC1C(=O)Nc1ccc(F)c(F)c1 (stereo not given)	-19	3402	4.7	5	15	7	8
Cn1c(=O)c2cc3ccccc3nc2n(C)c1=O	-10	4208	-2.0	-5	-7	-2	-1
c1ccc(Cn2c(SCc3nc4ccccc4s3)nnc2-c2ccco2)cc1	-26	2594	3.4	0	·	·	2
Cc1ccc([N+](=O)[O-])cc1S(=O)(=O)N1CCNCC1	-7	3812	5.3	16	10	8	1
Cc1cc(C(F)(F)F)nc(SCc2ccc(C(=O)O)o2)n1	-18	3948	5.2	-6	9	13	-7
COc1ccc(NS(=O)(=O)c2ccc3oc(=S)[nH]c3c2)cc1	-9	·	-2.3	10	0	13	-4
Cc1cccc(-c2n[nH]c(=S)n2N=Cc2ccco2)c1	·	·	6.4	11	1	14	·
CC(C)Cc1nnc(NC(=O)CCC(=O)N2CCOCC2)s1	-14	6234	3.7	4	-2	-2	-2
N#CC1=C(N)Oc2c(c(=O)oc3ccccc23)C1c1ccc(OC(=O)N2CCOCC2)cc1 (stereo not given)	-23	4790	4.1	8	13	9	-4
Cc1ccc(-n2c(C)cc3c2CCCC3=O)cc1	-21	6789	2.9	-12	-16	-9	3
CCOc1ccccc1N(CC(=O)NN=C(C)c1cccc(Br)c1)S(C)(=O)=O	·	·	4.4	-11	-6	6	·
CCCNC(=O)C12CCC(C)(c3nc4cc(C)c(C)cc4nc31)C2(C)C (stereo not given)	-1	5331	7.0	9	15	7	·
CC1CCN(C(=O)COC(=O)Cc2ccc(Br)cc2)CC1	-3	3746	-0.5	15	8	11	5
O=C(c1ccccc1)N1CCCCC(Cl)C1=O (stereo not given)	-62	4573	2.8	8	6	12	3
CCC1NC(=S)N(C2CCCCC2)C1=O (stereo not given)	4	10914	2.0	1	8	5	1
COc1cc(C=NNC(=S)NCCc2ccccc2)cc(OC)c1OC	·	·	5.4	18	-1	-1	·

As entered above.
Cc1ccc([N+](=O)[O-])cc1S(=O)(=O)N1CCNCC1 | Autofluor counter: 3812
CCOc1ccccc1N(CC(=O)NN=C(C)c1cccc(Br)c1)S(C)(=O)=O | Mtb hypoxia inh growth: 6
Cc1cccc(-c2n[nH]c(=S)n2N=Cc2ccco2)c1 | Mtb hypoxia inh growth: 14
Cn1c(=O)c2cc3ccccc3nc2n(C)c1=O | BJeLR viability: -1
O=C(c1ccccc1)N1CCCCC(Cl)C1=O (stereo not given) | Mtb hypoxia inh: 6
N#CC1=C(N)Oc2c(c(=O)oc3ccccc23)C1c1ccc(OC(=O)N2CCOCC2)cc1 (stereo not given) | Mtb hypoxia inh growth: 9
Cc1ccc(-n2c(C)cc3c2CCCC3=O)cc1 | Mtb hypoxia inh: -16

In the list so far, four contain a CF3 group.
SMILES	PrP 5UTR inh	Autofluor counter	Sa RN4220 lethal	Sa ugtP lethal	Mtb hypoxia inh	Mtb hypoxia inh growth	BJeLR viability
COc1ccc(S(=O)(=O)N2CCN(CC(=O)Nc3cc(C(F)(F)F)ccc3Cl)CC2)cc1	-5	2460	1.9	-5	·	·	-2
CC(=O)NC1(C(F)(F)F)N=C2SCCN2C1=O (stereo not given)	-11	22076*	5.4	4	9	12	13
O=C(NC1(C(F)(F)F)C(=O)Nc2c1c(=O)[nH]c(=O)n2Cc1ccccc1)c1ccc(Cl)cc1 (stereo not given)	5	16519*	·	·	·	·	6
Cc1cc(C(F)(F)F)nc(SCc2ccc(C(=O)O)o2)n1	-18	3948	5.2	-6	9	13	-7

(further entries)
SMILES	PrP 5UTR inh	Autofluor counter	Sa RN4220 lethal	Sa ugtP lethal	Mtb hypoxia inh	Mtb hypoxia inh growth	BJeLR viability
CCCn1nnc(NC(=O)/C=C/c2ccc(C(C)C)cc2)n1	-29	3181	4.6	3	-7	-4	2
COc1ccccc1NC(=O)C1=C(C)Nc2nc(-c3ccccc3)nn2C1c1ccccn1 (stereo not given)	-10	9667	2.2	5	12	13	3
CCSc1nnc([C@H](C)NC(=O)OC(C)(C)C)o1	-17	?	2.8	3	3	-7	5
O=C(c1ccc2snnc2c1)N1CCCC1	1	3437	3.8	3	10	8	7
CC(C)Cn1c(CNC(=O)c2ccccc2)nc2ccccc21	-1	4487	3.3	0	1	7	-6
O=C(CN1C(=O)CCS(=O)(=O)c2ccccc21)Nc1ccc(Cl)cc1	-15	5531	2.9	2	3	2	15
Cc1ccc(N=Cc2ccc[nH]2)c(O)c1	-24	21732*	-1.8	-7	-7	-8	2
COc1ccc(CNC(=O)CN(C(=O)CCC(=O)Nc2ccccn2)c2cccc(C)c2C)cc1	-15	4084	0.6	0	-14	0	0
COC(=O)c1c(C)oc(C)c1S(=O)(=O)NC(C)(C)C	-19	4310	3.8	15	12	-5	-9
OCCCc1ccc(O)c(O)c1	-30	5842	3.8	-4	·	·	2
Cc1cccc(NC(=O)COC(=O)Cc2c[nH]c3ccccc23)c1C	-10	2081	3.5	0	9	5	2
O=c1c2c(-c3ccc([N+](=O)[O-])cc3)csc2nc2n1CCC2	-3	2659	5.3	-4	36*	19*	3
CC(C)c1ccc(NC(=O)Cc2cn(C)c3ccccc23)cc1	-7	1998	-8.5	8	4	5	0
CC(=O)Nc1ccccc1Oc1ccccc1	5	4162	2.6	3	13	0	4
O=C(CN1CCOCC1)Nc1nc2ccc(F)cc2s1	-32	2632	6.7	8	0	5	0

Rewritten with values under each structure: four of the compounds above.
Each structure is followed by: PrP 5UTR inh	Autofluor counter	Sa RN4220 lethal	Sa ugtP lethal	Mtb hypoxia inh	Mtb hypoxia inh growth	BJeLR viability
Cc1cccc(NC(=O)COC(=O)Cc2c[nH]c3ccccc23)c1C
    -10	2081	3.5	0	9	5	2
CC(C)Cn1c(CNC(=O)c2ccccc2)nc2ccccc21
    -1	4487	3.3	0	1	7	-6
CC(C)c1ccc(NC(=O)Cc2cn(C)c3ccccc23)cc1
    -7	1998	-8.5	8	4	5	0
O=C(CN1CCOCC1)Nc1nc2ccc(F)cc2s1
    -32	2632	6.7	8	0	5	0
